From PubChem
Mtb growth – Confirmatory growth inhibition assay against Mycobacterium tuberculosis H37Rv, potency (AID 1949). most inactive calls were filed without a number and no value below 0 was filed. 100,000 compounds, 1.6% hits. inhibition, % at 10 µg/mL, or IC50 in µg/mL where a hit was titrated;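 active = confirmed in a dose series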;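 note: bacteria grown 7 days with compound before Alamar blue readout; 0% = untreated bacteria and 100% = reference antibiotic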
* hit, by the source's call; i = inactive. Not all compounds are listed. The share of hits here may be higher or lower than overall.

SMILES | Mtb growth
CS(=O)(=O)N1CCN(c2ccc([N+](=O)[O-])c(Sc3nnnn3-c3ccccc3)c2)CC1 | i
CC(NC(=O)CN(C1CCCCC1)S(=O)(=O)c1ccccc1)c1ccccc1 (stereo unspecified) | i
COC(=O)c1ccc(CSc2ccccc2)cc1 | 2%
CCn1c(SCC(=O)Nc2cccc(SC)c2)nnc1-c1ccc(Br)cc1 | i
CN(C)c1ccc(C(=S)N2CCCCCC2)cc1 | i
O=C(NCc1ccccn1)Nc1ccc(F)cc1F | i
CCOC(=O)N1CCN(CC(O)COCc2ccc(Cl)cc2)CC1 (stereo unspecified) | 3%
C=CCc1ccc(OCCn2cnc3ccccc32)c(OC)c1 | i
COc1ccc(-c2nc3cc(NC(=O)c4cc(Cl)ccc4OC)ccc3o2)cc1 | i
CC(=O)Nc1ccc(-c2csc(Nc3cccc(C(=O)O)c3)n2)cc1 | i
CCN(CC)CCNC(=O)c1ccc(N)cc1 | i
CC(=O)c1ccc(OCCN2CCN(C)CC2)cc1 | 0%
COc1ccc(Cl)cc1Nc1nc(-c2cccnc2)cs1 | i
CCOC(=O)N1CCN(C(=S)Nc2cc(OC)ccc2OC)CC1 | i
Cc1ccc(OCCOCCN2CCN(C)CC2)cc1C | i
O=C(c1ccncc1)N1N=C(c2cccc(Br)c2)CC1(O)C(F)(F)F (stereo unspecified) | i
C=CCNC(=O)C(C)Oc1ccc(Cl)cc1C (stereo unspecified) | i
O=C(Nc1nnc(-c2ccncc2)s1)c1csc2c1CCCC2 | i
CCC(C)c1ccccc1OCC(=O)Nc1sc2c(c1C(=O)OC)CCC2 (stereo unspecified) | i
Cc1oc(C(C)(C)C)cc1C(=O)N1CCCC1C(=O)O (stereo unspecified) | i
O=C(c1ccc(Br)o1)N1CCN(c2ccc(F)cc2)CC1 | i
COc1ccccc1-c1c(C(F)(F)F)oc2cc(OC(=O)c3ccco3)ccc2c1=O | i
Cc1ccc(NC(=O)CN2CCCCC2)c(Br)c1 | i
O=C(COc1ccc(Cl)cc1Br)NCc1ccncc1 | i
COc1ccc(-c2csc3ncn(CC(=O)N4CCOCC4)c(=O)c23)cc1 | i
CCCC(=O)Nc1ccccc1NC(=O)c1ccccc1C | i
COc1cc(NC(=O)Nc2cccc(Cl)c2C)cc(OC)c1OC | i
COc1ccccc1OCC(=O)NCc1ccncc1 | 0%
O=C(NC1CCCCC1)N1CCN(Cc2ccc3c(c2)OCO3)CC1 | 0.39µg/mL*
CCc1ccc(NC(=O)c2ccc(CN3CCOCC3)cc2)cc1 | i

Two compounds drawn at random from the list so far:
SMILES | Mtb growth
O=C(NC1CCCCC1)N1CCN(Cc2ccc3c(c2)OCO3)CC1 | 0.39µg/mL*
C=CCNC(=O)C(C)Oc1ccc(Cl)cc1C (stereo unspecified) | i

The results go on:
SMILES | Mtb growth
O=C(c1ccc(Cl)c(S(=O)(=O)N2CCOCC2)c1)N1CCCCCC1 | i
CCCCC1CCC(C(=O)Nc2ccc(S(N)(=O)=O)cc2)CC1 (stereo unspecified) | i
COc1ccccc1CNC(=O)c1cccc(NC(=O)C(C)C)c1 | 1%
CCOc1ccc(N(C(C)C(=O)Nc2ccc(F)c(F)c2)S(C)(=O)=O)cc1 (stereo unspecified) | 2%
COc1ccccc1NC(=O)C1CCN(C(=O)c2ccc(F)cc2)CC1 | 2%
Cc1ccc(S(=O)(=O)CC2CC2(Cl)Cl)cc1 (stereo unspecified) | i
O=C(NCc1ccccc1F)c1ccc2c(c1)OCO2 | i
O=C1CC(N2CCN(Cc3ccccc3)CC2)C(=O)N1CCc1ccccc1 (stereo unspecified) | i
CCCC(=O)c1ccc2c(c1)OCCO2 | i
c1ccc(-c2noc(CSc3nnc(C4CC4)n3-c3ccccc3)n2)cc1 | i
Cc1c(NC(=O)c2sc3cc(Cl)ccc3c2Cl)cccc1-c1nc2ncccc2o1 | i
CC(C)(C)NC(=O)Cn1nnc(-c2cccs2)n1 | i
COc1ccc(S(=O)(=O)Nc2ccccc2C(=O)O)cc1C(=O)O | i
CCn1c(SCC(=O)Nc2cccc3ccccc23)nnc1-c1ccco1 | i
Cn1c(SCC(=O)c2ccc(Cl)cc2)nc2ccccc21 | 1%
COc1cc(C=O)cc([N+](=O)[O-])c1OC(C)C | i
CS(=O)(=O)N(Cc1ccccc1Cl)c1ccc(C(=O)N2CCC(C(N)=O)CC2)cc1 | i
CCC(=O)c1ccc(OC(=O)c2ccc(OC)c(Br)c2)cc1 | 0%
OCCCNc1ncnc2scc(-c3ccc(Cl)cc3)c12 | i
O=C(Nc1cccc(NC(=O)c2ccco2)c1)c1cccc(I)c1 | i
O=C(CC1Sc2ccc(C(F)(F)F)cc2NC1=O)Nc1ccc(O)cc1 (stereo unspecified) | i
CC1CCCCC1NC(=O)CSc1nnc(-c2ccccc2)o1 (stereo unspecified) | i
O=C(c1ccco1)N1CCC(N(CCc2ccccc2)Cc2ccccc2)CC1 | 10%
O=C(Nc1ccc2c(c1)OCO2)C(=O)NC1CC1 | i
Cc1cc(NC(=O)CSc2nc3sc(C)c(C)c3c(=O)n2-c2ccccc2)no1 | i
COc1ccc(CN2CCN(C(=O)c3cccc4ccccc34)CC2)c(OC)c1OC | 0%
COc1ccc(NC(=S)N2CCN(c3cc(Cl)ccc3C)CC2)c(OC)c1 | i
Cc1ccc(Cl)cc1N1CCN(C(=O)c2cc(-c3ccccc3)on2)CC1 | i
CCOc1ccc(-n2c(SCC(=O)Nc3cc(C)c(Cl)cc3OC)nnc2-c2cccnc2)cc1 | i
O=C(O)c1cc(-c2cccnc2)nc2ccc(Br)cc12 | 4%
Cc1ccc(C(=O)Nc2nc3c(s2)CCCC3)o1 | 3%
CC(=O)NC(NC(C)=O)c1cccc([N+](=O)[O-])c1 | i
Cc1ccc(OCCCCn2cncn2)c(I)c1 | i
CCOc1ccccc1NC(=O)Nc1ccc(C)cc1OC(F)F | i
CCc1cc(C(=O)OC)c(NC(=S)N2CCN(S(=O)(=O)c3ccc(OC)cc3)CC2)s1 | i
CCc1ccc(NC(=O)c2csc3c2CCCC3)cc1 | i
CCOC(=O)c1ccc(NC(=O)CSc2nnc(-c3cccs3)n2C)cc1 | i
CCn1c(C)nc2cc(-c3ccccc3)ccc21 | 47%
Cc1ccc(CC(=O)Nc2nnc(C3CCCCC3)s2)cc1 | i
Cc1ccc(S(=O)(=O)N(CC(=O)N2CCN(c3ccccc3F)CC2)Cc2cccc(C)c2)cc1 | 3%
Cc1cccc(C(=O)NC2CCCC2)c1[N+](=O)[O-] | i
CCOC(=O)c1c(NC(=S)NCCn2cc(Br)cn2)sc2c1CCCCC2 | 13%
CCOc1c(I)cc(/C=C2\C(=O)ON=C2c2ccccc2)cc1OC | 5%
CCN(CC)CCOc1nnc(-c2ccc(Cl)cc2)c2ccccc12 | i
Cc1ccc(NC(=O)CSCC#N)cc1 | i
C=CCn1c(SCC(=O)Nc2nccs2)nnc1-c1ccco1 | i
O=S(=O)(NCc1cccs1)c1ccc(F)c(Cl)c1 | i
NC(=O)C1CCN(c2cc(N3CCOCC3)ccc2[N+](=O)[O-])CC1 | i
O=c1cc(NC2CCCCCC2)[nH]c(=O)[nH]1 | i
COc1ccc(OC)c(-c2sccc2CC(=O)O)c1 | 5%
COC(=O)c1sccc1NC(=O)c1csc(C)c1 | 5%
N#Cc1c(SCC(=O)NCc2ccc(Cl)cc2)nc2c(c1C(F)(F)F)CCCCC2 | 10%
CCOC(=O)c1c(C)n(CC(O)CN(C)C)c2cc(Br)c(OC)cc12 (stereo unspecified) | i
Cc1ccc(S(=O)(=O)N(CC(=O)Nc2c(Cl)cccc2Cl)Cc2ccccc2F)cc1 | i
CC(=O)c1ccc(NC(=O)C(C)N2C(=O)c3ccccc3C2=O)cc1 (stereo unspecified) | i
C=CCNCCCCOc1ccc(C(C)C)c(C)c1 | i
Cc1ccc(NC(=O)C2CC(=O)N(C(C)C)C2)cc1Cl (stereo unspecified) | i
NC(=O)C1CCN(C(=O)CSc2nc3c(c(-c4ccccc4)n2)CCCC3)CC1 | i
CCC(=O)Nc1ccccc1C(=O)C(=O)Nc1ccccc1 | 0%
CC(=O)Nc1ccc(OCC(=O)NCc2ccccc2)cc1 | i
Further compounds:
SMILES | Mtb growth
CC1CCN(S(=O)(=O)c2ccc(NC(=O)c3ccc4c(c3)OCO4)cc2)CC1 | i
COc1ccc(C(=S)N2CCN(Cc3ccccc3)CC2)cc1OC | i
CC(=O)NCCc1nc2cc(NC(=O)Nc3ccccc3)ccc2n1C | i
COc1ccccc1C(=O)Nc1nnc(-c2ccccc2OC)s1 | i
CC(Oc1ccc(Br)cc1Cl)C(=O)NCCCN1CCCC1=O (stereo unspecified) | i
O=C(CSc1nc(-c2ccccc2)cc(=O)[nH]1)NCCc1ccccc1 | i
CC1CCCCN1CC(O)COc1ccccc1F (stereo unspecified) | i
C=CCOc1ccc2c(-c3ccccc3)cc(=O)oc2c1 | i
C=C(C)Cn1c(Cc2cccc3ccccc23)nc2ccccc21 | i
C=CCOc1ccc(C(=O)NC2CCCCCC2)cc1 | i
O=C(Nc1ccc(Br)cn1)Nc1ccccc1Cl | 3%
COc1ccc(C(=O)Nc2nc(COc3ccccc3)cs2)cc1OC | 42%
Cc1ccc(C(=O)N2CCN(c3ccccn3)CC2)c(C)c1 | i
Cc1ccc(-c2nnc(SCC(=O)c3ccc(Br)cc3)o2)cc1 | i
O=C(Oc1ccc(Cl)cc1Br)c1cccc([N+](=O)[O-])c1 | 1%
COc1cccc(-n2c(=S)[nH]c3c(c2=O)C2(CCCC2)Cc2ccccc2-3)c1 | i
COc1ccc(Cc2nnc(SCC(=O)Nc3cc(C(F)(F)F)ccc3Cl)n2C)cc1 | i
COc1ccc(NC(=O)C(C)Sc2ccc(Cl)cc2)cc1Cl (stereo unspecified) | 43%
Nc1nc2c(s1)c(=O)[nH]c(=O)n2-c1ccccc1 | i
CCOC(=O)c1nn(-c2ccccc2)c(C(=O)OCC)c1NC(=O)c1nn(CC)cc1Br | i
COc1ccc(/C=N/n2cnnc2)cc1COc1ccc(Cl)cc1 | 0%
O=C1c2ccccc2C(=O)c2c1nc1n2CCCC1 | i
Cc1ccc(C(=O)NCCC2=CCCCC2)o1 | i
Cc1cc(NC(=O)CSc2nnc(C)o2)no1 | i
O=C(Nc1ccc(F)cc1F)c1ccc(S(=O)(=O)N2CCCCC2)cc1 | i
O=C(O)c1ccc(Cl)c(NC(=S)NC(=O)c2ccccc2I)c1 | i
CN(C)CCNc1ncnc2sc3c(c12)CCC3 | i
Cc1ccc(-c2nnc3c4ccccc4c(C)nn23)cc1S(=O)(=O)NCc1cccnc1 | 4%
CCOc1ccc(S(=O)(=O)N(CC(=O)Nc2ccc(Br)cc2)c2ccccc2)cc1 | 1%
COc1ccc(/C(N)=N/OC(=O)c2cc(-c3ccccc3)nc3ccccc23)cc1 | i
COc1cc(C2Nc3ccccc3C(=O)N2c2ccc(C)cc2)ccc1O (stereo unspecified) | i
Cc1cc(N)n(-c2ccc([N+](=O)[O-])cc2)n1 | i
CC(C)CNC(=O)c1ccccc1NC(=O)CCSc1ccccc1 | i
O=C(Nc1cccc(F)c1)c1cccc(-c2cc3ccccc3oc2=O)c1 | i
O=C(CN(c1ccc(Cl)cc1)S(=O)(=O)c1ccccc1)NC1CCCC1 | i
Cc1cc(=O)oc2cc(NC(=S)N3CC(C)OC(C)C3)ccc12 (stereo unspecified) | i
CCN1CCN(CCOc2ccccc2-c2ccccc2)CC1 | i
O=C(Nc1cc(C(F)(F)F)ccc1N1CCOCC1)c1ccc(-c2cccc([N+](=O)[O-])c2)o1 | i
CCn1c(=O)c([N+](=O)[O-])c(NCCc2ccc(OC)c(OC)c2)c2ccccc21 | 0%
NC1=NC2(CCCCC2)N=C(Nc2ccc(F)c(F)c2)N1 | 1%
Cc1ccc(NC(=O)CN(c2cccc(F)c2)S(C)(=O)=O)cc1 | 2%
CS(=O)(=O)N(CC(=O)Nc1ccccc1F)C1CCCCC1 | i
Cc1ccccc1NC(=O)COc1c(C)ccc(C)c1C | 6%
COc1ccc(NC(=S)N2CCN(C(c3ccccc3)c3ccccc3)CC2)cc1OC | 3%
CN(C)CCCN(CCCN(C)C)Cc1ccc(Cl)cc1 | 1%
CSc1cccc(NS(=O)(=O)c2cc(Cl)ccc2Cl)c1 | i
O=C(Cn1nnc2ccccc2c1=O)c1ccc2c(c1)CCCC2 | i
O=C(Nc1ccc2c(c1)OCO2)c1ccc(Br)s1 | 44%
CC(C)(C)c1ccc(OCC(=O)Nn2cnnc2)cc1 | i
COc1ccc(CCC(=O)Nc2ccc(S(=O)(=O)N3CCN(C)CC3)cc2)cc1 | i
Cc1cc(NC(=O)COc2ccc(Cl)cc2C)ccc1Br | i
CN1CCN(NC(=O)c2ccc(Cl)s2)CC1 | i
CCCCNC(=O)Cc1ccc(Cl)cc1 | i
Cc1ccc(C)c(N(CC(=O)N2CCCCC2)S(C)(=O)=O)c1 | i

Structures above that have a thiophene ring, fused or not, in the order listed:
SMILES | Mtb growth
O=C(Nc1nnc(-c2ccncc2)s1)c1csc2c1CCCC2 | i
CCC(C)c1ccccc1OCC(=O)Nc1sc2c(c1C(=O)OC)CCC2 (stereo unspecified) | i
COc1ccc(-c2csc3ncn(CC(=O)N4CCOCC4)c(=O)c23)cc1 | i
Cc1c(NC(=O)c2sc3cc(Cl)ccc3c2Cl)cccc1-c1nc2ncccc2o1 | i
CC(C)(C)NC(=O)Cn1nnc(-c2cccs2)n1 | i
OCCCNc1ncnc2scc(-c3ccc(Cl)cc3)c12 | i
Cc1cc(NC(=O)CSc2nc3sc(C)c(C)c3c(=O)n2-c2ccccc2)no1 | i
CCc1cc(C(=O)OC)c(NC(=S)N2CCN(S(=O)(=O)c3ccc(OC)cc3)CC2)s1 | i
CCc1ccc(NC(=O)c2csc3c2CCCC3)cc1 | i
CCOC(=O)c1ccc(NC(=O)CSc2nnc(-c3cccs3)n2C)cc1 | i
CCOC(=O)c1c(NC(=S)NCCn2cc(Br)cn2)sc2c1CCCCC2 | 13%
O=S(=O)(NCc1cccs1)c1ccc(F)c(Cl)c1 | i
COc1ccc(OC)c(-c2sccc2CC(=O)O)c1 | 5%
COC(=O)c1sccc1NC(=O)c1csc(C)c1 | 5%
CN(C)CCNc1ncnc2sc3c(c12)CCC3 | i
O=C(Nc1ccc2c(c1)OCO2)c1ccc(Br)s1 | 44%
CN1CCN(NC(=O)c2ccc(Cl)s2)CC1 | i
